Source: PubChem (Johns Hopkins Ion Channel Center)
KCNQ2 pot – KCNQ2 (rat) channel potentiation. O88943. CHO-K1 KCNQ2, FluxOR thallium flux fluorescence; hits give high values. B-score at 10 µM. 310,000 tested, 0.54% active. AID 2239;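 active = fluorescence ratio B-score at least 3 SD of library B-scores, with initial fluorescence B-score within 3 SD, cut at about 5.3 in these data; same plate scores as AID 2156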;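 note: B-score of peak minus minimum over baseline fluorescence ratio after K+ and Tl+ stimulus; positive B-score means potentiation of KCNQ2 with more thallium influx and brighter signal; only the inactives scoring about 0 or higher are listed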
Target sequence (O88943 whole entry, looked up): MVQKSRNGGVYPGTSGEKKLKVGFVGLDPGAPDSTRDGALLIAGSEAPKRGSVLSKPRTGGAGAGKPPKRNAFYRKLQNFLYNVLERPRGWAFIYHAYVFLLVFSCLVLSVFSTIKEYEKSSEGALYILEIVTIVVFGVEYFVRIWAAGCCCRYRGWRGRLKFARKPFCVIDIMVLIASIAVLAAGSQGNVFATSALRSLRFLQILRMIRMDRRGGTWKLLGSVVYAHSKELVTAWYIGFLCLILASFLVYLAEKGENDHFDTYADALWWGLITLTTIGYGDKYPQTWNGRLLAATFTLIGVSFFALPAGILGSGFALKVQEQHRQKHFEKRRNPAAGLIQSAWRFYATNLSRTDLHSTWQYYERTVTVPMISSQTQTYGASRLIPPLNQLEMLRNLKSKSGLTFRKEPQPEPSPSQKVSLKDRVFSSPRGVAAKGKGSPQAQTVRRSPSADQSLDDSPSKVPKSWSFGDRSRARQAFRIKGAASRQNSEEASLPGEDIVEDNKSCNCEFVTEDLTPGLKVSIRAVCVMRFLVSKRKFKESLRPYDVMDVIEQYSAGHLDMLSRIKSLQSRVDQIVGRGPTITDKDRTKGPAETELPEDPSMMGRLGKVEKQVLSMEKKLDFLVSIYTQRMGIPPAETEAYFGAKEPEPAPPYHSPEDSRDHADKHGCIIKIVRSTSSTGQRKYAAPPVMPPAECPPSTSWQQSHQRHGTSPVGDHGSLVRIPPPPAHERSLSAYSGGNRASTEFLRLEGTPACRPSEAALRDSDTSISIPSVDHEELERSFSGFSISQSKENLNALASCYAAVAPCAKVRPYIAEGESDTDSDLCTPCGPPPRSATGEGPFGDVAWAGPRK
KCNQ2 pot baseline – also measured in KCNQ2 pot; calls as there; B-score; compound at 10 µM; measured here: initial fluorescence intensity artifact check;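 brightness before thallium and not channel activity; 0 = typical well and far values either way flag optical interference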
* hit, by the source's call. These rows are one share of the data; count on the stated rates, not on these rows.

SMILES	KCNQ2 pot	KCNQ2 pot baseline
O=C(C1CCN(S(=O)(=O)c2ccc3c(c2)OCCO3)CC1)N1CCc2ccccc21	0.7	0.5
O=C(CSc1nnc(CNC(=O)c2ccccc2F)o1)NCC1CCCO1 (stereo not given)	1.19	0.53
OCCOc1ccc(C2=NCCO2)cc1	0.59	0.01
Cc1cc(=O)[nH]c(SCC(=O)N2CCC(C(N)=O)CC2)n1	0.1	0.05
COC(=O)C1SCC2C(=O)N(Cc3ccc(Cl)c(Cl)c3)CC(=O)N21 (stereo not given)	0.68	0.08
Cc1ccccc1CSCC(=O)N/N=C/c1cccs1	0.53	-0.68
Cc1nc(N2CCN(C)CC2)c2c(C)c(C(=O)Nc3ccc(F)cc3)sc2n1	0.88	0.02
CN(C)S(=O)(=O)n1cc(/C=C(\NC(=O)c2ccccc2F)C(=O)N2CCOCC2)c2ccccc21	0.71	-0.13
O=C(c1ccccc1-c1ccccc1)N1CCOCC1	1.03	-2.23
COc1ccc(C(=O)NC(=O)COC(=O)c2ccc3ncsc3c2)cc1	1.05	0.13
COc1ccccc1Cn1c(=S)[nH]c2cc(C(=O)NCc3cccnc3)ccc2c1=O	0.57	-1.14
CCN(CC)CCN(Cc1cc2cc3c(cc2[nH]c1=O)OCO3)C(=S)NC	0.71	-0.5
CN(C)/C=C/C(=O)c1cccc(Cl)c1	1.33	-0.56
COc1cc(NC(=S)NC(=O)c2ccc(C(C)(C)C)cc2)ccc1NC(=O)c1cccs1	0.75	0.03
CC1CC(C)CN(CCOc2ccc(Br)cc2)C1 (stereo not given)	0.33	0.55
CC(NC(=O)C1CC1)C(c1cccs1)N1CCN(c2ccccc2)CC1 (stereo not given)	1.23	-1.12
COc1ccc(OCCCC(=O)N(CCC2=CCCCC2)c2c(N)n(Cc3ccccc3)c(=O)[nH]c2=O)cc1	0.2	0.3
COC(=O)C1=C(NC(=O)CCCCl)CCS1	0.7	-0.04
COc1cc(OC)cc(-c2nnc(SCc3ccc(C(=O)O)cc3)o2)c1	0.03	0.41
COc1cc(OC)c2nc(C)c3c(c2c1)N(c1ccc(O)cc1)CC3	1.03	0.01
CC1=C(C(=O)OC(C)C)C(c2cccnc2)n2ncnc2N1 (stereo not given)	0.57	-2.32
CCC(=O)Nc1cc(C(=O)OCC(=O)c2ccccc2Cl)ccc1C	0.22	0
Nc1cc([N+](=O)[O-])ccc1N1C(=O)CCCC1=O	1.53	-2.09
CC(NC(=O)CNC(=O)C1CCCCC1)c1cccc(Cl)c1 (stereo not given)	0.95	0.03
COc1cccc(C(=O)Nc2c(C)nn(-c3ccccc3)c2C)c1	0.55	0.01

Additional results:
SMILES	KCNQ2 pot	KCNQ2 pot baseline
N#Cc1nc(-c2ccc(Cl)cc2)oc1NCc1ccco1	0.06	0.21
Cc1ncc(C[n+]2ccc(C)c(C)c2)c(N)n1	0.31	-0.23
CC(C)CC(N=Cc1c(O)c2ccccc2oc1=O)C(=O)O (stereo not given)	0.02	2.66
Cc1ccc(/C(N)=N/OC(=O)c2ccc(C)cc2Cl)cc1	0.23	0.53
O=C(N/N=C/c1cccnc1)C(O)c1ccccc1 (stereo not given)	1.1	-1.45
CCC1CCCCN1CCNC(=O)CCS(=O)(=O)c1ccc(Br)cc1 (stereo not given)	0.21	0
Oc1ccc2ccccc2c1N=Nc1nccs1	9.68*	-2.85*
Cc1cc(/C=N/NC(N)=O)c(C)c(CO)c1	0.05	-1.21
CC(C)NC(=O)C1c2ccccc2Oc2ccccc21	0.11	4
O=C(Nc1ccccc1N1CCOCC1)c1cccc([N+](=O)[O-])c1	1.55	-1.51
Cc1ccc(NC(=O)CSc2nccc(=O)[nH]2)c(S(=O)(=O)N2CCOCC2)c1	0.41	0.64
COc1cc(NC(=S)N2CCN(S(=O)(=O)c3ccc(C)cc3)CC2)cc(OC)c1	0.05	-1.24
O=C(NCC(c1ccco1)N1CCN(c2ccccc2)CC1)C(=O)NC1CCCC1 (stereo not given)	0.04	-0.49
CCOC(=O)C1(Cc2ccc(O)cc2)NC(c2ccccc2F)C2C(=O)N(C)C(=O)C21 (stereo not given)	1.57	-1.25
CS(=O)(=O)N1CCN(Cc2ccc([N+](=O)[O-])cc2)CC1	0.04	-0.1
O=C(c1cc(Br)c(Br)s1)N1CCOCC1	0.02	1.78
O=C(NCc1cccs1)C1CCN(S(=O)(=O)c2ccc3c(c2)OCCO3)CC1	1.11	0.16
CN(C)CCNc1nc2c(c(=O)[nH]c(=O)n2C)n1CC(O)COc1ccc(Cl)cc1Cl (stereo not given)	1.87	-1.89
NCCCC[C@H]1CNC(=O)C(=O)N1CCC12CC3CC(CC(C3)C1)C2	0.67	-0.55
O=C(Oc1ccc(-c2cn3c(n2)SCC3)cc1)c1ccccc1	0.4	-0.22
CC1=C(C(N)=O)C(c2ccc(Cl)cc2)NC(=O)N1 (stereo not given)	1.47	0
C/C(=N\NC(=O)c1ccc2ccccc2c1)c1cccs1	1.11	0.71
CNC(=S)NNC(=O)c1ccc(=O)n(Cc2ccc(Cl)cc2Cl)c1	1.6	-0.39
CCn1cc(CNC(=O)C2CCC(=O)N(Cc3ccc(Cl)cc3)C2)cn1 (stereo not given)	0.93	-1.3
CN(C(=O)COC(=O)CSc1cc(Cl)ccc1Cl)c1c(N)n(Cc2ccccc2)c(=O)[nH]c1=O	1.13	-0.6

Two entries drawn at random from those above, as already listed:
SMILES	KCNQ2 pot	KCNQ2 pot baseline
CS(=O)(=O)N1CCN(Cc2ccc([N+](=O)[O-])cc2)CC1	0.04	-0.1
C/C(=N\NC(=O)c1ccc2ccccc2c1)c1cccs1	1.11	0.71

(listing goes on)
SMILES	KCNQ2 pot	KCNQ2 pot baseline
O=C(O)c1cccnc1SCc1ccc([N+](=O)[O-])cc1	1.61	-0.21
O=C(O)C1C2C=CC(C2)C1C(=O)OCC1CCCO1 (stereo not given)	0.19	-0.23
Cc1ccc(OC(=O)CCC(=O)Nc2ccc(Br)cc2)cc1	0.73	0.19
CC1(C)Cc2ccccc2C(NNC(=O)c2ccc(Br)o2)=N1	0.24	-3.72
CC(C)CC(=O)c1c[nH]c(C(=O)NCCCN2CCOCC2)c1	0.11	0.9
CN(C)C(CNC(=O)c1ccc2c(=O)n(-c3ccccc3F)c(=S)[nH]c2c1)Cc1ccccc1 (stereo not given)	0.33	1.86
O=C(N/N=C/c1c[nH]c2ccccc12)c1cc(-c2ccc3ccccc3c2)n[nH]1	1.78	-0.04
CC1(C)CC(=O)C2=C(C1)NCN(Cc1ccc3c(c1)OCO3)C2	1.33	-1.92
O=C1Nc2ncccc2OC1CCCl (stereo not given)	0.81	-0.39
Cc1sc2ncnc(NCc3ccco3)c2c1C	1.1	-2.26
CS(=O)(=O)c1ccc(NC(=O)c2cccc(S(=O)(=O)N3CCN(Cc4ccccc4)CC3)c2)cc1	0.63	0.12
COc1ccc(CC(=O)O/N=C(\N)Cc2ccc(OC)c(OC)c2)cc1	1.31	-1.04
COc1ccccc1Oc1ccc(N/C=C/C(=O)c2ccco2)cc1	1.72	-0.2
COC(=O)NC1(C(=O)O)CCCC1	0.34	0.04
C=CCn1c(SCC(=O)NC(=O)NCc2ccco2)nc2sc(CC)cc2c1=O	2.67	0.38
CCCNC(=O)C1CN(S(=O)(=O)c2ccccc2)CCN1S(=O)(=O)c1ccccc1 (stereo not given)	0.51	0.06
COc1ccccc1C(O)(C(=O)NNc1cccc(C)c1)c1ccccc1OC	1.9	-0.18
CC(C)n1c(=NC(=O)c2ccco2)c(C#N)cc2c(=O)n3ccccc3cc21	0.54	5.71
COc1ccc(C(=O)Nc2ccc(C(=O)c3ccccc3)cc2)cc1	0.03	1.32
Cc1nn(CCO)c2nc(-c3cccs3)cc(C(F)(F)F)c12	5.75*	-0.03*
O=[N+]([O-])c1ccc(OCCCOc2cccc3cccnc23)cc1	0.28	0.37
O=C(C1CCCO1)N1CCN(S(=O)(=O)c2cccc3nsnc23)CC1 (stereo not given)	0.56	-0.01
O=C(COc1ccccc1/C=C1/NC(=O)NC1=O)Nc1ccccc1	0.03	-2.84
O=C(O)c1cc2cc(Cl)ccc2oc1=O	0.98	1.72
CCOc1cc(/C=N/NC(N)=O)ccc1OCC(=O)Nc1ccc(C)c(C)c1	0.4	-0.21

Going on with the list:
SMILES	KCNQ2 pot	KCNQ2 pot baseline
CC(C)Sc1nnc(-c2ccc(S(=O)(=O)N3CCOCC3)cc2)n1C	0.43	1.4
Cc1cc(C)c(C)c(C(=O)COC(=O)CNC(=O)CNC(=O)c2ccco2)c1C	0.07	-0.28
CCOC(=O)N1CCC(=NNC(=O)NC2CCCCC2)CC1	0.5	0.49
COc1ccc(C(=O)NNC(=S)NC(=O)c2ccccc2[N+](=O)[O-])cc1	0.83	-1.33
CC1CCCCC1NC(=O)C(=O)NCC1CCCO1 (stereo not given)	0.62	-0.09
COCCNC(=O)c1nn(-c2cc(OC)cc(OC)c2)c(=O)c2ccccc12	1.06	1.53
CCCCCCCCC(=O)Nc1cc(C)ccc1OC	2.94	-0.62
CC(=O)N(c1ccccc1C)C1CCCC1	0.01	-0.81
Cc1cccc(Cn2c(SCCN3CCCCC3)nc3c2c(=O)[nH]c(=O)n3C)c1	0.01	-0.11
COc1ccc(NC(=O)C2CCCN2C(=O)Nc2ccccc2)cc1OC (stereo not given)	1.3	1.81
C=CCC(O)(CC=C)C(C)N (stereo not given)	0.06	-0.37
O=C(Oc1ccc2c(=O)c(Oc3ccc4ccccc4c3)coc2c1)c1ccco1	0.35	0.24
Cc1nn(-c2ccccc2)c(-n2cccc2)c1C(=O)O	0.4	0.71
CC(C)(C)c1ccc(C(=O)NCCC(=O)N2CCN(c3ncccn3)CC2)cc1	1.67	0.98
CCOc1ccc2[nH]c3c(N4CCC5(CC4)OCCO5)ncnc3c2c1	1.96	-0.2
COc1ccc(-c2cc(=O)[nH]c(NCc3ccccc3)n2)cc1	1.57	-0.5
COC(=O)COc1ccc(NC(=O)c2ccco2)cc1	0.12	-0.67
COc1cccc(NC(=O)N2CCCC2C(=O)Nc2ccc3c(c2)OCCO3)c1 (stereo not given)	0.77	-1.56
O=C(Cc1ccc(Br)cc1)N1CCN(C(=O)c2ccco2)CC1	1.57	-0.85
O=C(NNC(=O)C1CC(c2cccnc2)=NO1)Nc1ccccc1F (stereo not given)	0.27	-0.61
CC(C)C(OC(=O)c1nsc(Cl)c1Cl)C(=O)NCc1ccc2c(c1)OCO2 (stereo not given)	4.11	2.42
CCOc1ccc(Nc2cc(=O)n(C)c(=O)n2C)cc1	0.75	0.71
CCOCCOc1nc2c(c(=O)n(C)c(=O)n2C)n1CCc1ccccc1	0.08	-2.88
COc1ccc(N2CCN(C(=N)/C(C(C)=O)=C(\C)O)CC2)cc1	0.66	3.05
CSC(=NNC(=O)c1ccc(O)cc1)SC	0.03	0.65

Further structures
SMILES	KCNQ2 pot	KCNQ2 pot baseline
CC1Sc2ccc(C(=O)N3CCCC(C(F)(F)F)C3)cc2NC1=O (stereo not given)	1.87	0.52
CCN1C(=O)C(C)S/C1=N\S(=O)(=O)c1ccc(Cl)s1 (stereo not given)	0.47	1.26
C[C@H]1[C@H]2c3nc4ccccc4n3C[C@H]1ON2C1CCCCC1	0.04	1.04
CC(C)NC(=O)C1(c2ccccc2)CCOCC1	0.52	0.9
O=C(NC1CCCC1)C(c1ccncc1)N(C(=O)c1csnn1)c1cccc(F)c1 (stereo not given)	0.54	0.78
Cn1ncc(Br)c1NC(=O)CSc1ccc(Cl)cc1	0.69	0.74
O=C(CC1Nc2cccc3cccc(c23)NC1=O)Nc1ccccc1 (stereo not given)	3.05	1.34
O=C(NCCCCCCNC(=O)c1ccccc1O)c1ccccc1O	0.82	-1.99
Cn1c(O)c(N=NC(=O)Cn2c(C(F)(F)F)nc3ccccc32)c2ccccc21	0.78	0.42
CCCCSc1nnc(-c2ccccc2NC(C)=O)c(=O)[nH]1	0.74	-0.46
Cn1c(=O)c2c(ncn2CCCNC2=CC(C)(C)CC(=O)C2)n(C)c1=O	0.49	-0.04
CCC(=O)Nc1cccc(C(=O)N(Cc2ccccc2)Cc2ccccc2)c1	2.44	-1.07
Cc1ccc(O)c(C(=O)c2cnc(/N=C(\N)N(C)C)nc2)c1	0.3	-2.28
COc1ccc2nc(Nc3nc(-c4ccncc4)cs3)sc2c1	0.42	-1.08
CCOc1cc(C2Nc3ccccc3C(=O)N2c2ccccc2OC)ccc1O (stereo not given)	0.87	-0.32
CC(C)(C)C(=O)COC(=O)C1=NN(c2ccccc2)C(=O)CC1	0.63	-2.82
COc1cc(N=Nc2c(C)n(C)n(-c3ccccc3)c2=O)ccc1N	0.16	2.06
COc1cccc(CN(C)C(=O)Cc2ccc(OC)c(S(=O)(=O)N3CCOCC3)c2)c1	1.08	2.45

Entries above with two or more sulfur atoms (13):
SMILES	KCNQ2 pot	KCNQ2 pot baseline
Cc1ccccc1CSCC(=O)N/N=C/c1cccs1	0.53	-0.68
COc1cc(NC(=S)NC(=O)c2ccc(C(C)(C)C)cc2)ccc1NC(=O)c1cccs1	0.75	0.03
Cc1ccc(NC(=O)CSc2nccc(=O)[nH]2)c(S(=O)(=O)N2CCOCC2)c1	0.41	0.64
COc1cc(NC(=S)N2CCN(S(=O)(=O)c3ccc(C)cc3)CC2)cc(OC)c1	0.05	-1.24
O=C(NCc1cccs1)C1CCN(S(=O)(=O)c2ccc3c(c2)OCCO3)CC1	1.11	0.16
CS(=O)(=O)c1ccc(NC(=O)c2cccc(S(=O)(=O)N3CCN(Cc4ccccc4)CC3)c2)cc1	0.63	0.12
C=CCn1c(SCC(=O)NC(=O)NCc2ccco2)nc2sc(CC)cc2c1=O	2.67	0.38
CCCNC(=O)C1CN(S(=O)(=O)c2ccccc2)CCN1S(=O)(=O)c1ccccc1 (stereo not given)	0.51	0.06
O=C(C1CCCO1)N1CCN(S(=O)(=O)c2cccc3nsnc23)CC1 (stereo not given)	0.56	-0.01
CC(C)Sc1nnc(-c2ccc(S(=O)(=O)N3CCOCC3)cc2)n1C	0.43	1.4
CSC(=NNC(=O)c1ccc(O)cc1)SC	0.03	0.65
CCN1C(=O)C(C)S/C1=N\S(=O)(=O)c1ccc(Cl)s1 (stereo not given)	0.47	1.26
COc1ccc2nc(Nc3nc(-c4ccncc4)cs3)sc2c1	0.42	-1.08
